High-throughput results from PubChem.
GLA inh pH 4.5 – inhibitors of human alpha-galactosidase A at pH 4.5 | P06280 | purified enzyme, 4-MU-alpha-Gal fluorescence, pH 4.5 | activity change, negative = inhibition, % at 105 µM | 230,000 tested, under 10 active; inconclusive = small, poorly fitted or top-dose-only inhibition, or a rising curve; inactive = flat fitted curve, though single readings scatter; no compound was filed as active;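 also: 0% = full activity with enzyme and -100% = basal without enzyme; dose as in the result columns while the protocol names 77 µM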
Target sequence (P06280 whole entry, looked up): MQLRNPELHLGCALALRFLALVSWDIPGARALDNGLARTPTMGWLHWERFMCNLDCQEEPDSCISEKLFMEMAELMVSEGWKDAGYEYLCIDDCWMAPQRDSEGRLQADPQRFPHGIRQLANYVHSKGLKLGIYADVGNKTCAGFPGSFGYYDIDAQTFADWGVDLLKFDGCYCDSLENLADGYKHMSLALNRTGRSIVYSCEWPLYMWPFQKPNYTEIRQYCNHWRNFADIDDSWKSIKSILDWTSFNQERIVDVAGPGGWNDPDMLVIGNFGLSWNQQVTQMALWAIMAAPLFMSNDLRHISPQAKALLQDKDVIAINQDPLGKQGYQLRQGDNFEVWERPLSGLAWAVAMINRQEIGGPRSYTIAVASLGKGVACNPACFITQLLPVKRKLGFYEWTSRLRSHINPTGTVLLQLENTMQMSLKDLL
Rango-impB inh – Rango-importin beta binding inhibition | Rango CFP/YFP FRET sensor + importin beta, 45 min | AID 540263 | Potency, µM (titrated, usually from 92.2 µM), inactives show at the top dose inhibition of complex formation | Q14974 | hit rate 0.031% among 340,000; active = rising FRET ratio curve, often small or poorly fitted; inconclusive = mostly compound fluorescence or quenching in the first reads; inactive = flat curves in all reads;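 also: potency is read from the fitted curve at half-maximal effect; 0% = DMSO wells and 100% = buffer wells lacking importin beta; nearly all actives have a fitted effect of over 15% in size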
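FRET biosensor (snurportin 1 IBB flanked by EYFP and cerulean), 50 nM, with compound 5 min, then 0.125 microM importin beta in PBS, 1 mM DTT, 0.02% Tween-20, 0.1% BSA. CFP/YFP ratio read after 45 min at room temperature; pre-read flags interference.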
Rango release inh – inhibition of RanGTP-driven Rango-importin beta dissociation. O95149+P62826. Biochemical FRET Rango-importin beta, RanGTP-induced dissociation. Potency, µM (highest dose often 46.1 µM), inactives show at the highest dose activity change, negative = inhibition. hit rate 0.071% among 340,000; active means falling FRET ratio curve, often poorly fitted, with flat reads before Ran was added; inconclusive means other falling curves, or compound fluorescence or quenching; inactive means flat or rising ratio curve;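 also: potency is read from the fitted curve at half-maximal effect; % of control where 0% means no effect; nearly all actives have a fitted effect of over 45% in size; -100% = wells without RanGTP and RCC1; the record marks most hits as doubtful in a second field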
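Compounds preincubate 5 min with complex of recombinant Rango and importin beta in PBS with 1 mM DTT. Ran (0.6 uM) loaded with 2 mM GTP plus 0.2 uM RCC1 starts dissociation; FRET is recorded 45 min later.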
miR-21 reporter – raises the signal of a miR-21 reporter; HeLa miR-21 FLuc reporter, luciferase, 48 h; Potency, µM (titrated, usually from 38.3 µM), for the others: at the highest dose reporter change, positive = more light; 340,000 tested, under 10 active; AID 2288; active = well fitted rising curve with a large enough effect; inconclusive = small, poorly fitted or top-dose-only effect; inactive = no such curve, though single readings can be large or run the other way;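 also: % of control where 0% means no effect; miR-21 action dims this reporter so a rising signal means less miR-21 action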
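Luminescence from a firefly luciferase reporter carrying a miR-21 binding site downstream, stably expressed under a CMV promoter in HeLa cells that make miR-21 endogenously, reports miRNA modulation after 48 h compound exposure up to approximately 40uM final.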
Starred values were filed as active, the others as inactive; ? = inconclusive; nt = not tested or not shown. A portion of the library; the hit share may differ from the screen's.

GLA inh pH 4.5	Rango-impB inh	Rango release inh	miR-21 reporter	Molecule
-4	-1.1%	2%	2%	S=C1NCCNC(=S)NCCOCCN1
3	-3.9%	0%	-4%	CCC1CCCCN1C(=O)N[C@@H](Cc1ccccc1)C(=O)O (some centres undefined)
-2	-0.2%	29%	-5%	C/C(N)=C(/C#N)C(=O)COC(=O)CCSc1ccccc1Cl
7	-0.7%	-7%	1%	CCOc1ccc(NC(=O)CN2CCN(CC(=O)Nc3ccc(F)cc3)CC2)cc1
nt	?	?	nt	CC1(NC(=O)CCc2nc3sc4c(c3c(=O)[nH]2)CCCC4)CCS(=O)(=O)C1 (centres undefined)
nt	-8.0%	-27%	nt	CCCS(=O)(=O)Nc1ccc(N2CCCCC2)c(S(=O)(=O)Nc2ccccc2OC)c1
-3	4.5%	15%	-18%	NNC(=O)c1cccc(S(=O)(=O)Nc2cc(Cl)ccc2Cl)c1
nt	0.2%	-16%	-1%	COCCCNc1nc2ccccc2nc1NS(=O)(=O)c1ccc(Cl)cc1

6 compounds already listed, sorted by formula weight, falling.
GLA inh pH 4.5	Rango-impB inh	Rango release inh	miR-21 reporter	Molecule
nt	-8.0%	-27%	nt	CCCS(=O)(=O)Nc1ccc(N2CCCCC2)c(S(=O)(=O)Nc2ccccc2OC)c1
7	-0.7%	-7%	1%	CCOc1ccc(NC(=O)CN2CCN(CC(=O)Nc3ccc(F)cc3)CC2)cc1
nt	?	?	nt	CC1(NC(=O)CCc2nc3sc4c(c3c(=O)[nH]2)CCCC4)CCS(=O)(=O)C1 (centres undefined)
nt	0.2%	-16%	-1%	COCCCNc1nc2ccccc2nc1NS(=O)(=O)c1ccc(Cl)cc1
-2	-0.2%	29%	-5%	C/C(N)=C(/C#N)C(=O)COC(=O)CCSc1ccccc1Cl
-4	-1.1%	2%	2%	S=C1NCCNC(=S)NCCOCCN1

Continued.
GLA inh pH 4.5	Rango-impB inh	Rango release inh	miR-21 reporter	Molecule
0	-4.6%	-4%	-1%	CC(NC(=O)c1ccc(OC2CCN(Cc3ccccn3)CC2)cc1)c1ccccc1 (centres undefined)
2	-1.2%	12%	5%	CCOC(=O)Nc1cc(=O)c2ccccc2o1
nt	-0.7%	15%	nt	CC(=O)OCCN1C(=O)c2ccc(-c3nc4ccccc4c(=O)o3)cc2C1=O
-2	0.3%	-1%	1%	COC(=O)COc1ccc(S(=O)(=O)Nc2ccccc2SC)cc1
nt	-1.0%	-12%	0%	Cc1ccc(/C=C2\C(=N)N3N=C(CC(=O)N4CCOCC4)SC3=NC2=O)o1
0	-2.2%	0%	-5%	O=C(CSc1nnc(Nc2ccccc2)s1)NCc1cccs1
nt	5.1%	0%	-1%	N[C@@H](Cc1ccccc1)C(=O)N1CCC(C(=O)N[C@@H](CCC(=O)O)C(=O)O)CC1
-11	-1.9%	-8%	-1%	CC1CC(C)CN(C(=O)C(Cc2ccccc2)n2cccc2)C1 (centres undefined)
nt	?	2%	0%	Cc1ccc(NC(=O)CCn2c(=O)[nH]c3ccsc3c2=O)cc1F
-5	-0.9%	1%	30%	O=S(=O)(c1cccs1)N1CCN(c2ccnc3cc(Cl)ccc23)CC1
2	-0.2%	2%	-3%	O=Cc1cn(Cc2ccccc2)nc1-c1cccnc1
-9	-2.3%	-4%	4%	O=C(Cn1c(-c2ccccc2)noc1=O)N1CCC(Cc2ccccc2)CC1
nt	0.5%	2%	nt	O=C(NCCCN1CCOCC1)c1onc(CSc2ccncc2)c1C(=O)NCCCN1CCOCC1
1	-1.7%	-10%	-1%	CCOC(=O)c1nnn(-c2nonc2-n2cccc2)c1CCl
2	nt	nt	-3%	C/C(=N/O)c1ccc(N2C(=O)C3C4C=CC(C3C2=O)C2C3C(=O)N(c5ccc(/C(C)=N/O)cc5)C(=O)C3C42)cc1 (centres undefined)
nt	0.2%	?	4%	COc1ccc(N(CC(=O)NCCSCc2ccc(Cl)cc2)S(C)(=O)=O)cc1Cl
nt	-2.0%	-9%	4%	CCCCc1cc(=O)oc2cc(C)cc(OCC(=O)N3CCC(C(=O)O)(c4ccccc4)CC3)c12
-8	?	-13%	-40%	Cc1ccc2nc(-c3ccc(NS(=O)(=O)c4ccccc4)cc3)sc2c1
nt	0.6%	?	nt	CCOc1ccc(NC(=O)COc2ccc(C(=O)NCC3CCCO3)cc2OC)cc1 (centres undefined)
7	-6.1%	14%	-7%	O=C(CCc1ccc(S(=O)(=O)N2CCOCC2)cc1)Nc1ccc(N2CCOCC2)cc1
-3	2.1%	-12%	5%	CCN(c1ccccc1)S(=O)(=O)c1ccc(Cl)c(NC(=O)COC(=O)C2CC2C)c1 (centres undefined)
5	-3.2%	-10%	-12%	COC(=O)CCC/C=C1/SCC(NC(=O)c2ccccc2)C1O (centres undefined)
-7	-3.2%	-18%	-3%	O=c1c2ccccc2n(Cc2cccc(F)c2)c(=O)n1C1CCCC1
-4	1.7%	-11%	-3%	Cc1ccc2nsnc2c1S(=O)(=O)NCc1ccncc1
-5	?	?	-13%	O=C(CSc1ncnc2scc(-c3ccccc3)c12)N1CCN(Cc2ccc3c(c2)OCO3)CC1
nt	-2.1%	11%	nt	COc1cccc(C(=O)COC(=O)C2CC3CCCC(C2)C3=O)c1 (centres undefined)
nt	0.8%	8%	0%	COCCN(C(=O)CCC(=O)Nc1ccccn1)C(C(=O)NC(C)C)c1ccc(C)cc1 (centres undefined)
2	-1.4%	-9%	0%	CCc1ccc(CNC(=O)CCc2nnc(CCc3ccc(OC)cc3)o2)nc1
-14	-1.0%	-9%	-1%	CCCCN(C(=S)Nc1ccccc1)C1CCS(=O)(=O)C1 (centres undefined)
nt	1.5%	11%	nt	COc1cccc(-c2nnc(SCC(=O)NC3CCS(=O)(=O)C3)n2C)c1 (centres undefined)
5	-2.6%	-7%	-2%	O=C(CN1CCCCC1CO)c1ccc(OC(F)F)cc1 (centres undefined)
7	-2.4%	-3%	-28%	CCOc1ccc2nc(NS(C)(=O)=O)sc2c1
-4	-2.1%	4%	0%	COn1c(=O)c(=O)n(OC)c2ccccc21
nt	-3.6%	-14%	0%	COc1ccccc1/C=C/c1nc(S(=O)(=O)c2ccccc2)c(NCCN(C)C)o1
-2	-0.6%	-1%	?	O=C(CCCN1C(=O)/C(=C/c2ccccc2Cl)SC1=S)NNC(=O)c1ccccc1Cl
nt	-1.7%	3%	4%	C[C@@H](C(=O)NCC1CCCO1)N1C(=O)N2CCc3c([nH]c4ccccc34)[C@@]2(C)C1=O (some centres undefined)
3	-2.3%	0%	-1%	S=C(c1ccc2c(c1)OCO2)N1CCOCC1
nt	-0.6%	-2%	nt	COc1cc(C=O)ccc1OC(=O)Nc1ccccc1
-4	3.0%	6%	0%	Cn1c(CN2CCOCC2)nnc1SCC(N)=O
nt	0.5%	2%	-2%	Cc1ccc(NS(=O)(=O)c2c(C(=O)N3CCCCCC3)c(C)n(C)c2C)c(Cl)c1
-4	-2.2%	-10%	-22%	O=C(Nc1ccccc1C(=O)N/N=C/c1ccncc1)c1ccccc1
nt	-0.1%	-10%	-4%	COC(=O)c1ccc(N(CC(=O)NC2CCCC2)C(=O)CNC(=O)c2cccs2)cc1
4	0.4%	17%	-6%	CCC(C(=O)N1CCc2cc(OC)c(OC)cc2C1)c1ccccc1 (centres undefined)
-4	nt	nt	-15%	COc1cc(OC)c(-c2nnc3n(CCc4ccccc4)c(=O)c4ccccc4n23)cc1OC
nt	?	?	7%	CCOC(=O)c1cc2c(=O)n3ccccc3nc2n(C)c1=NC(=O)c1c(-c2c(F)cccc2Cl)noc1C
-2	?	7%	25%	CC1CCN(c2c(NCc3ccc(C(=O)N4CCc5ccccc54)cc3)c(=O)c2=O)CC1
7	7.9%	-4%	-14%	CCn1cc(/C=C/C(=O)Nc2ccn(Cc3c(F)c(F)c(F)c(F)c3F)n2)cn1
nt	0.3%	-2%	3%	COc1cc(NC(=O)c2ccc(F)cc2)c(OC)cc1NC(=O)CN1CCCCC1
nt	0.5%	0%	-1%	Cc1cc(C)cc(OC(=O)COc2ccccc2C)c1
-3	2.2%	1%	-21%	CC(C)(C)NC(=O)C(c1ccncc1)N(C(=O)Cn1nnc(-c2ccc(F)cc2)n1)c1ccccc1F (centres undefined)
9	?	12%	-2%	C=CCn1c(NCCOC)nc2c1c(=O)n(C)c(=O)n2C
-5	12%	2%	-57%	COc1ccc(NC2=Nc3cccc4cccc2c34)cc1
1	2.3%	3%	-4%	Cc1ccc(C)c(N(CC(=O)N(C)C)S(C)(=O)=O)c1
nt	0.5%	0%	nt	CC(Sc1nnc(-c2ccncc2)n1C)C(=O)Nc1ccc(N2CCOCC2)cc1 (centres undefined)
nt	1.8%	-4%	nt	CC(C)(C)c1ccc(OCCC(=O)Nc2cccc(S(=O)(=O)N3CCCC3)c2)cc1
nt	1.3%	3%	nt	O=C(CN1C(=O)NC2(CCc3ccccc32)C1=O)c1ccc(F)c(F)c1 (centres undefined)

Next part:
GLA inh pH 4.5	Rango-impB inh	Rango release inh	miR-21 reporter	Molecule
2	?	?	-2%	CN1CCN(Cc2c(O)c(Cl)cc3c(-c4ccccc4)cc(=O)oc23)CC1
-2	-2.6%	15%	nt	CCn1ccnc1CC1COc2ccccc2O1 (centres undefined)
-6	-5.4%	-20%	8%	CCOC(=O)C(=CNc1ccc(-c2ccco2)c(Cl)c1)C(=O)OCC
-5	4.1%	14%	-47%	O=C(NCC1CCCO1)c1cc(-c2ccc(Cl)cc2Cl)on1 (centres undefined)
2	-0.2%	-6%	-1%	CCOC(=O)C1=c2s/c(=C\c3ccncc3)c(=O)n2C(N)=C(C(=O)OC)C1c1ccncc1 (centres undefined)
-12	-3.1%	41%	7%	O=C(COC(=O)CCc1c[nH]c2ccccc12)NC(c1ccccc1)c1ccccc1
1	-1.0%	-2%	-5%	CCC(C)NC(=O)Cc1ccc(-c2ccccc2)cc1 (centres undefined)
9	0.7%	-10%	-12%	Cc1ccc(-c2nn3c(C)nnc3s2)cc1NC(=O)c1ccc(-c2ccc(Cl)cc2Cl)o1

Four compounds drawn at random from the list so far, as already listed:
GLA inh pH 4.5	Rango-impB inh	Rango release inh	miR-21 reporter	Molecule
2	?	?	-2%	CN1CCN(Cc2c(O)c(Cl)cc3c(-c4ccccc4)cc(=O)oc23)CC1
-5	4.1%	14%	-47%	O=C(NCC1CCCO1)c1cc(-c2ccc(Cl)cc2Cl)on1 (centres undefined)
2	-0.2%	-6%	-1%	CCOC(=O)C1=c2s/c(=C\c3ccncc3)c(=O)n2C(N)=C(C(=O)OC)C1c1ccncc1 (centres undefined)
-2	-2.6%	15%	nt	CCn1ccnc1CC1COc2ccccc2O1 (centres undefined)

(more compounds)
GLA inh pH 4.5	Rango-impB inh	Rango release inh	miR-21 reporter	Molecule
2	-2.9%	-1%	1%	O=C(Nc1ccc2cn[nH]c2c1)c1ccc(S(=O)(=O)N2CCOCC2)cc1
-9	?	13%	-21%	Cc1ccc2cc(CN(C(=O)c3ccco3)c3ccccc3)c(=O)[nH]c2c1
-7	-6.1%	-13%	-5%	Cc1[nH]c2ccccc2c1/C=C(\C#N)C(=O)NC(C)c1ccccc1 (centres undefined)
0	-1.0%	1%	-1%	Cc1cc(C)c(NC(=O)C(C)OC(=O)c2cc(Br)c(Br)s2)c(C)c1 (centres undefined)
nt	0.6%	6%	nt	Clc1ccc(-c2cc(-c3ccccc3)on2)cc1
-9	3.1%	-10%	12%	CC(=O)OCCN(C)c1cc(SC(C)C)c2nonc2c1[N+](=O)[O-]
nt	-2.5%	-8%	nt	CCCCN(C(=O)c1cc(S(=O)(=O)N2CCOCC2)ccc1F)c1c(N)n(CCCC)c(=O)[nH]c1=O
